AF4-AF9 inh: inhibitors of AF4 peptide binding to AF9, primary screen, biochemical, AlphaScreen, biotin-AF4 peptide, FLAG-AF9, single point. inhibition, % at 10 µM. 350,000 compounds, 0.47% hits. AID 651704, 2012;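 active = every replicate reaching a set inhibition limit, whatever the replicate mean, cut at about 25% in these data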;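 also: 0% = plate neutral control median and 100% = total signal loss; the record names both 10 and 1 µM as test concentration; the first replicate is given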
Target sequence (P42568 whole entry, looked up): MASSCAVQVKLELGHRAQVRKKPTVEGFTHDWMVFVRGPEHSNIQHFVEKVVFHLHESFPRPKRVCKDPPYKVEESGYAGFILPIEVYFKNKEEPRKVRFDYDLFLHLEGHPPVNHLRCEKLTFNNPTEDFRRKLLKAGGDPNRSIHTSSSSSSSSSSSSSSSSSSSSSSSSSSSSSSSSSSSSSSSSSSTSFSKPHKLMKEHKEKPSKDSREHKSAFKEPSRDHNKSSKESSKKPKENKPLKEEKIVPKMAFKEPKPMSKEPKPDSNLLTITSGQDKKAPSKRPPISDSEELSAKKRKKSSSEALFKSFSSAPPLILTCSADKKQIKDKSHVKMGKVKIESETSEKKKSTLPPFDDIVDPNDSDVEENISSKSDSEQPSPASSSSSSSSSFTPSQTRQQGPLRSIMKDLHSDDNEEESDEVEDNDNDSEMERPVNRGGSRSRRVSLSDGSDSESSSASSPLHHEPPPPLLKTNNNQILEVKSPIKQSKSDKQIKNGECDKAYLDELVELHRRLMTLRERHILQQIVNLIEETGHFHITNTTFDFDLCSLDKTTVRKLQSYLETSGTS
The depositor's hits bear a star.

SMILES | AF4-AF9 inh
O=C(NCc1cccc(F)c1)[C@H]1[C@H](CO)[C@H]2Cn3c(ccc(-c4cccnc4)c3=O)[C@@H]1N2CC1CC1 | 1.9
C[C@H]1CN([C@@H](C)CO)C(=O)c2cc(NS(=O)(=O)c3ccc(F)cc3)ccc2O[C@H]1CN(C)Cc1ccc(-c2ccccc2)cc1 | 2.7
C[C@@H](NC(=O)C[C@@H]1CC[C@@H](NS(=O)(=O)c2cccc(F)c2)[C@H](CO)O1)c1ccccc1 | 1.1
C[C@@H]1CN([C@H](C)CO)C(=O)c2ccccc2-c2ccccc2CO[C@@H]1CN(C)S(=O)(=O)c1cccc(C#N)c1 | -0.5
C[C@@H]1CN([C@H](C)CO)C(=O)c2cccc(NC(=O)c3ccc(-c4nccs4)cc3)c2O[C@@H]1CN(C)C(=O)NC1CCCCC1 | 1.2
C[C@H]1CN([C@@H](C)CO)C(=O)c2cc(NC(=O)Nc3ccccc3)ccc2O[C@@H]1CN(C)Cc1ccc(Cl)c(Cl)c1 | 1.6
Cc1ccc(S[C@]2(C(=O)NCCCN(C)C)CC(=O)N(C3CCCCC3)[C@@H]2c2ccc(CO)cc2I)cc1 | 1.5
Nc1ccccc1-c1cn(CC(=O)Nc2ccon2)nn1 | 1.8
C[C@@H]1CN([C@H](C)CO)C(=O)c2cc(-c3cccc(C#N)c3)cnc2O[C@@H]1CN(C)C(=O)c1cnccn1 | 0.9
CN(C)CC(=O)N1[C@H](C#N)[C@H](c2ccc(-c3cccc(C(=O)N(C)C)c3)cc2)[C@H]1CO | -1.0
CC(=O)N1CCN(c2ccc(NC(=O)c3cccc(F)c3)cc2)CC1 | -1.8
NCCCCCNC(=O)[C@@H]1C[C@@H]2C(=O)N[C@@H](Cc3ccccc3)C(=O)N2[C@@H]1c1ccc(O)cc1 | 1.0
C[C@@H]1CN([C@@H](C)CO)C(=O)c2cccc(NC(=O)c3nc4ccccc4s3)c2O[C@H]1CN(C)Cc1ccc(-c2ccccc2)cc1 | 2.2
COc1cccc(-c2ccc3c(c2)[C@@H]2[C@@H](CCN2C(=O)C2CCCCC2)[C@@H](CO)N3)c1 | 7.6
NC(Cc1ccc(O)cc1)C(=O)NN=Cc1ccccc1Cl (stereo not given) | 4.9
C[C@@H]1CN([C@H](C)CO)C(=O)Cc2cc(NC(=O)Cn3cnnn3)ccc2O[C@H]1CN(C)CC1CCCCC1 | 0.1
CO[C@H]1CN(C)C(=O)c2cc(NS(=O)(=O)c3ccc(F)cc3)ccc2OC[C@@H](C)NC[C@H]1C | -3.5
O=C(C[C@@H]1CC[C@@H](NC(=O)c2ccncc2)[C@@H](CO)O1)NCc1ccncn1 | -1.9
O=C(C[C@H]1C[C@H]2c3cc(NC(=O)CC4CC4)ccc3O[C@H]2[C@H](CO)O1)NCc1ccc(Cl)cc1 | -2.4
COc1ccc(OC)c(CN2C(=O)c3ccccc3C2c2nnnn2Cc2ccccc2)c1 (stereo not given) | 1.2
C[C@@H]1CN([C@H](C)CO)C(=O)c2cc(C#Cc3cccnc3)cnc2O[C@@H]1CN(C)Cc1ccc(F)cc1 | 0.5
N#C[C@H]1[C@H](c2ccc(C3=CCCCC3)cc2)[C@@H](CO)N1S(=O)(=O)c1cccc(F)c1 | 2.1
O=C(C[C@@H]1CC[C@H](NC(=O)c2ccccc2)[C@@H](CO)O1)NCc1ccc(Oc2ccccc2)cc1 | -1.6
Cc1ccc(CN(C)C[C@H]2OCc3cnnn3CCCC(=O)N([C@H](C)CO)C[C@H]2C)cc1 | -9.0

Part of the list above, as tab-separated lines:
mol	AF4-AF9 inh
C[C@@H]1CN([C@H](C)CO)C(=O)c2cc(C#Cc3cccnc3)cnc2O[C@@H]1CN(C)Cc1ccc(F)cc1	0.5
N#C[C@H]1[C@H](c2ccc(C3=CCCCC3)cc2)[C@@H](CO)N1S(=O)(=O)c1cccc(F)c1	2.1

(listing goes on)
SMILES | AF4-AF9 inh
CCCn1c(C)nc2c(c1=O)c1nc3ccccc3nc1n2-c1ccccc1 | -0.9
CNC[C@@H]1Oc2ccc(NS(=O)(=O)c3ccc(Cl)cc3)cc2CC(=O)N([C@@H](C)CO)C[C@H]1C | -1.7
CCCNC(=O)C1(C)CCN1C(=O)C1(c2ccccc2)CC1 (stereo not given) | 0.3
C[C@H](CO)N1C[C@H](C)[C@H](CN(C)Cc2ccc3c(c2)OCO3)Oc2ccc(NC(=O)C3CCCCC3)cc2C1=O | 0.2
Cc1ccccc1-c1cnc2c(c1)C(=O)N([C@@H](C)CO)C[C@@H](C)[C@@H](CN(C)C(=O)c1ccncc1)O2 | -1.0
O=C(Nc1ccc(Cl)c(Cl)c1)N[C@H]1CC[C@H](CCn2cc(C3CCCC3)nn2)O[C@H]1CO | 5.5
Cc1noc(C)c1S(=O)(=O)Nc1ccc2c(c1)C(=O)N([C@H](C)CO)C[C@@H](C)[C@@H](CN(C)C(=O)Nc1ccc3c(c1)OCO3)OCCCC[C@@H](C)O2 | 5.2
C/C=C/c1ccc2c(c1)O[C@H](CN(C)C(=O)C1CCOCC1)[C@@H](C)CN([C@H](C)CO)S2(=O)=O | -0.1
COc1ccc(S(=O)(=O)Nc2ccc3c(c2)CC(=O)N([C@@H](C)CO)C[C@H](C)[C@@H](CN(C)C(=O)NC2CCCCC2)O3)cc1 | 0.3
C[C@@H]1CN([C@@H](C)CO)C(=O)c2cc(C#CC3CCCC3)cnc2O[C@H]1CN(C)C(=O)Cc1ccccn1 | 1.5
CC(CC(=O)Nc1ccc2c(c1)c(=O)n(C)n2-c1cccs1)c1ccccc1 (stereo not given) | -3.4
C[C@@H](NC(=O)C[C@H]1C=C[C@@H](NS(=O)(=O)c2cccc(F)c2)[C@H](CO)O1)c1ccccc1 | -0.6
O=C(Nc1ccccc1F)N[C@H]1CC[C@@H](CCNS(=O)(=O)c2ccccc2)O[C@@H]1CO | 0.0
COc1ccccc1-c1cnc2c(c1)C(=O)N([C@H](C)CO)C[C@H](C)[C@H](CN(C)C(=O)c1ccccc1)O2 | -2.8
C[C@@H]1CN([C@@H](C)CO)S(=O)(=O)c2ccc(C#CCN(C)C)cc2O[C@H]1CN(C)Cc1ccncc1 | 1.7
COc1cccc(-c2ccc([C@H]3[C@H]4CN(CC5CC5)CCCCN4[C@H]3CO)cc2)c1 | 2.9
COc1ccc(S(=O)(=O)Nc2ccc3c(c2)C(=O)N([C@@H](C)CO)C[C@H](C)[C@@H](CN(C)Cc2ccc(C(F)(F)F)cc2)O3)cc1 | 4.2
CC1(C(=O)NS(=O)(=O)c2ccccc2Cl)CCN1C(=O)C1(c2ccccc2)CC1 (stereo not given) | -2.6
C[C@H]1CCCCO[C@@H](CN(C)S(=O)(=O)c2ccccc2)[C@@H](C)CN([C@@H](C)CO)C(=O)c2cc(NS(=O)(=O)c3ccc(F)cc3)ccc2O1 | -1.1
CC(=O)NC[C@H]1[C@@H](c2ccc(C#Cc3ccccc3F)cc2)[C@@H](CO)N1C(C)=O | -3.3
COc1ccc(NC(=O)Nc2cccc3c2O[C@H](CN(C)Cc2ccc(C(=O)Nc4ccccc4N)cc2)[C@H](C)CN([C@@H](C)CO)C3=O)cc1 | 1.7
Cc1cccc(C)c1NC(=O)C1(C)CN(S(C)(=O)=O)CC(=O)N1CC(F)(F)F (stereo not given) | -3.2
CC(C)NC(=O)Nc1ccc2c(c1)CC(=O)N([C@H](C)CO)C[C@H](C)[C@@H](CN(C)S(=O)(=O)c1ccccc1)O2 | -3.2
Cc1ccccc1-c1cnc2c(c1)C(=O)N([C@H](C)CO)C[C@@H](C)[C@H](CN(C)Cc1ccccc1F)O2 | 7.8
O=C(C[C@H]1C=C[C@H](NS(=O)(=O)c2cccc(F)c2)[C@H](CO)O1)NCc1ccc2c(c1)OCO2 | 0.0
CCCNC(=O)N1CC2(CN(C(=O)CC)C2)c2c(n(C)c3cc(OC)ccc23)[C@@H]1CO | 0.3
O=C(O)C[C@@H]1C[C@@H]2c3cc(NC(=O)C4CCC4)ccc3O[C@@H]2[C@@H](CO)O1 | 1.0
Cc1ccc(S(=O)(=O)Nc2ccc3c(c2)C(=O)N([C@@H](C)CO)C[C@H](C)[C@@H](CN(C)Cc2ccc4c(c2)OCO4)OCCCC[C@H](C)O3)cc1 | 3.4
Cc1ccc(S(=O)(=O)N2C[C@H]3C(=O)C[C@@H](c4ccc(Cl)cc4)N(S(=O)(=O)c4ccc(C)cc4)[C@H]3C[C@H]2c2cccc3ccccc23)cc1 | -2.8
COc1ccc(NC(=O)Nc2ccc3c(c2)CC(=O)N([C@H](C)CO)C[C@H](C)[C@H](CN(C)Cc2ccc4c(c2)OCO4)O3)cc1 | -0.7
CCCNC(=O)[C@@H]1[C@@H](CO)[C@@H]2Cn3c(ccc(-c4ccccc4F)c3=O)[C@H]1N2C(=O)CC | -2.0
COc1ccc2ccc(=O)oc2c1CC(=O)C(C)C | 4.1
COCC(=O)Nc1ccc2c(c1)C(=O)N(C)C[C@@H](OC)[C@H](C)CN(Cc1ccccc1OC)[C@H](C)CO2 | 1.5
C[C@@H]1CN([C@H](C)CO)C(=O)c2cc(-c3cncnc3)cnc2O[C@H]1CN(C)CC1CCOCC1 | -4.4
CCC(=O)Nc1ccc2c(c1)OC[C@H](C)N(C(=O)C1CCC1)C[C@@H](C)[C@@H](OC)CN(C)C2=O | 0.1
COc1ccc(S(=O)(=O)N(C)C[C@@H]2Oc3ncc(C#CC4(O)CCCC4)cc3C(=O)N([C@H](C)CO)C[C@@H]2C)cc1 | -0.5
O=C(NCC[C@@H]1CC[C@H](NC(=O)c2cnccn2)[C@H](CO)O1)Nc1ccc(Cl)cc1 | 12
C[C@H](CO)N1C[C@H](C)[C@H](CN(C)CC2CCCCC2)Oc2ccc(NC(=O)Nc3cccc4ccccc34)cc2C1=O | 12
Cc1ccc(S(=O)(=O)N(C)C[C@@H]2Oc3ccc(NC(=O)Nc4ccc5c(c4)OCO5)cc3CC(=O)N([C@@H](C)CO)C[C@@H]2C)cc1 | 6.7
O=C(c1ccccc1)N1CC2(C1)[C@H](c1ccccc1)[C@H](CO)N2C(=O)CC1CC1 | -1.9
C[C@@H]1CN([C@H](C)CO)C(=O)Cc2cc(NC(=O)CCCCCC(=O)Nc3ccccc3N)ccc2O[C@@H]1CN(C)CC1CCCCC1 | 6.8
CC(C)CC#Cc1ccc2c(c1)O[C@H](CN(C)C)[C@H](C)CN([C@H](C)CO)S2(=O)=O | 4.0
O=C(c1ccc2c(c1)OCO2)N1CC2(C1)[C@H](c1ccccc1)[C@@H](CO)N2C(=O)C1CCCC1 | 0.4
COc1ccc(NC(=O)N(C)C[C@@H]2OCCCC[C@H](C)Oc3ccc(NC(=O)NC(C)C)cc3C(=O)N([C@H](C)CO)C[C@@H]2C)cc1 | -0.5
C[C@@H]1CN([C@@H](C)CO)C(=O)c2cc(-c3ccc(C(=O)N(C)C)cc3)cnc2O[C@@H]1CN(C)C(=O)c1cccnc1 | -1.8
Nc1ncnc2c1ncn2[C@@H]1O[C@H](C(=O)N(CCC2=CCCCC2)CC2CC2)[C@@H](O)[C@H]1O | 0.1
COc1ccc2c3c(n(C)c2c1)[C@@H](CO)N(Cc1ccccc1)CC31CN(C(=O)c2ccccc2F)C1 | 6.8
C[C@@H]1CN([C@@H](C)CO)C(=O)c2cc(NC(=O)CCCCCC(=O)Nc3ccccc3N)ccc2O[C@@H]1CN(C)Cc1ccc2c(c1)OCO2 | 0.7

A second format for part of the listing above:
SMILES,AF4-AF9 inh
O=C(c1ccc2c(c1)OCO2)N1CC2(C1)[C@H](c1ccccc1)[C@@H](CO)N2C(=O)C1CCCC1,0.4
CC(C)CC#Cc1ccc2c(c1)O[C@H](CN(C)C)[C@H](C)CN([C@H](C)CO)S2(=O)=O,4.0
C[C@@H]1CN([C@H](C)CO)C(=O)Cc2cc(NC(=O)CCCCCC(=O)Nc3ccccc3N)ccc2O[C@@H]1CN(C)CC1CCCCC1,6.8
C[C@H](CO)N1C[C@H](C)[C@H](CN(C)CC2CCCCC2)Oc2ccc(NC(=O)Nc3cccc4ccccc34)cc2C1=O,12
O=C(NCC[C@@H]1CC[C@H](NC(=O)c2cnccn2)[C@H](CO)O1)Nc1ccc(Cl)cc1,12

Additional entries follow:
SMILES | AF4-AF9 inh
CCCCCCC12C(=Cc3cc4c(cc31)OCCO4)c1cc(OC)c(OC)cc1C(CC(=O)NC1CCCCC1)N2C(=O)OC (stereo not given) | 3.9
C[C@@H]1CCCCO[C@@H](CN(C)C(=O)NC2CCCCC2)[C@H](C)CN([C@@H](C)CO)C(=O)c2cc(NS(=O)(=O)c3ccccc3)ccc2O1 | -1.2
O=C(C[C@@H]1C[C@@H]2c3cc(NC(=O)CC4CC4)ccc3O[C@@H]2[C@@H](CO)O1)NCc1cccc(F)c1 | -0.5
COCCNC(=O)[C@@H]1[C@@H](CO)[C@@H]2Cn3c(ccc(-c4ccccc4)c3=O)[C@H]1N2C | -0.9
COc1cccc(S(=O)(=O)N(C)C[C@@H]2OCc3ccccc3-c3ccccc3C(=O)N([C@H](C)CO)C[C@H]2C)c1 | 15
C[C@H]1CCCCO[C@@H](CN(C)C(=O)Nc2ccc(F)cc2)[C@@H](C)CN([C@@H](C)CO)C(=O)c2cc(NS(=O)(=O)c3ccc(F)cc3)ccc2O1 | -1.5
OC(c1ccc(F)c(F)c1)c1nc(-c2ccncc2)cs1 (stereo not given) | -2.9
Cc1ccc(S(=O)(=O)Nc2ccc3c(c2)C(=O)N([C@@H](C)CO)C[C@@H](C)[C@@H](CN(C)Cc2ccc(C(=O)O)cc2)OCCCC[C@@H](C)O3)cc1 | -1.0
COCC(=O)N1CC2(C1)[C@H](c1ccc(-c3ccc(F)cc3)cc1)[C@H](CO)N2C(C)=O | 0.2
Cc1ccc(-c2ccc3c(c2)O[C@H](CN(C)Cc2ccc(F)cc2)[C@@H](C)CN([C@H](C)CO)S3(=O)=O)cc1 | 3.8
O=C(CC(F)(F)F)N1C[C@@H]2[C@H](c3ccccc31)[C@@H](CO)N2C(=O)c1ccncc1 | -23

Screening results as filed in PubChem.

An excerpt (hit frequency here may not be typical).
